CDC25B-CDK2 inh: primary biochemical HTRF screen for blockers of M-phase inducer phosphatase 2 binding to CDK2/cyclin A | P30305+P24941 | z-score (test concentration not listed) | HTRF CDC25B-CDK2/CyclinA binding, anti-His/anti-Flag; stronger effect = higher value | 94,000 tested, 0.72% active;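 note: score is relative to mean and SD of negative controls; strong numbers were not always called active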
TAR Tat displ: TAR RNA-Tat peptide displacers, HIV-1, primary screen, biochemical, FRET, FAM/TAMRA-labeled Tat; HIV-1 TAR RNA, Tat peptide displacement FRET; stronger effect = higher value; z-score (test concentration not listed); 100,000 tested, 0.6% active;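 note: score is relative to mean and SD of negative controls; some compounds called inactive have numbers as strong as hits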
The depositor's hits bear a star.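 Rule for the calls: active = z-score from 3 up in half or more of its runs; inactive = the rest.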 Compounds as they come (roughly 0.87% active in at least one column).

`CCOCCOC(=O)C1=C(C)NC2=C(C(=O)CC(C)(C)C2)C1c1ccc(OC)c(OC)c1` (configuration not stated) gave CDC25B-CDK2 inh -0.7 and TAR Tat displ 0.11.
Screening Cc1cccc(S(=O)(=O)Nc2cccc(-c3cn4ccsc4n3)c2)c1 returned CDC25B-CDK2 inh -1.5.
`CC(=O)n1nc(C)c(Sc2nnnn2-c2ccccc2)c1C` gave CDC25B-CDK2 inh -1.2.
Screening COc1ccc(C2CC(=O)Nc3c2c(C)nn3-c2ccc3nnc(C)n3n2)cc1OC (configuration not stated) returned TAR Tat displ 0.35.
Screening CN1CCN(Cn2c(O)c(N=NC(=O)CO/N=C/c3ccccc3Cl)c3ccccc32)CC1 returned CDC25B-CDK2 inh -1.1.
Screening O=[N+]([O-])/C=C/c1cccc(Oc2ccccc2)c1 returned CDC25B-CDK2 inh -1.4.
For O=C(Nc1cccc2nsnc12)c1ccc([N+](=O)[O-])o1 the results were TAR Tat displ 0.61.
Screening COc1ccc(-c2cc3ccccc3n2CC(O)Cn2nc(C)cc2C)cc1 (configuration not stated) returned CDC25B-CDK2 inh -1.5 and TAR Tat displ -0.36.
For CSc1nc(SC)c2c3c(sc2n1)COC(C)(C)C3 the results were CDC25B-CDK2 inh -2.4 and TAR Tat displ -1.5.
For O=S(=O)(Nc1nnc(C2CC2)s1)c1cccc2nonc12 the results were CDC25B-CDK2 inh -2.6.
`c1ccc2c(CNCC3CCCO3)noc2c1` (configuration not stated) gave TAR Tat displ 2.1.
Screening COc1ccc(/C=N/NC(=O)c2ccn[nH]2)cc1CSc1nc2ccccc2s1 returned CDC25B-CDK2 inh -2.7.
Screening O=C(Nc1ccc(Cl)cn1)S(=O)(=O)c1ccccc1 returned CDC25B-CDK2 inh -0.18.
For O=C(O)c1cc(-c2cccc3ccccc23)nc2n[nH]c(-c3ccc(F)cc3)c12 the results were CDC25B-CDK2 inh -0.99 and TAR Tat displ 1.1.
O=C1c2cccnc2C(=O)N1Cc1ccc(S(=O)(=O)Nc2ccc(F)c(Cl)c2)s1 was read as TAR Tat displ -1.1.

Of the compounds above, 2 contain a nitro group on carbon.
Screening O=[N+]([O-])/C=C/c1cccc(Oc2ccccc2)c1 returned CDC25B-CDK2 inh -1.4.
For O=C(Nc1cccc2nsnc12)c1ccc([N+](=O)[O-])o1 the results were TAR Tat displ 0.61.

More records follow:
Screening O=C(Nc1ccc(Cl)cc1)c1n[nH]nc1Nc1ccccc1 returned CDC25B-CDK2 inh 1.1 and TAR Tat displ 2.1.
For COc1ccc(OC)c(C2NC(=O)c3c(sc4c3CCN(C)C4)N2)c1 (configuration not stated) the results were CDC25B-CDK2 inh -1 and TAR Tat displ 0.19.
`O=C1NC2CC2N1C(=O)OCc1ccccc1` (configuration not stated) gave CDC25B-CDK2 inh -2.4.
`Cn1nc(C(=O)Nc2ccccc2F)c2c1-c1ccccc1OC2` gave CDC25B-CDK2 inh -1.9 and TAR Tat displ 0.38.
`O=S(=O)(c1ccccc1)c1nc(-c2ccccc2)oc1N1CCCCC1` gave CDC25B-CDK2 inh -1.5 and TAR Tat displ 1.6.
For O=C(C1=Cc2sc3c(c2CS1)CCCC3)N1CCc2ccccc2C1 the results were TAR Tat displ 4.6.
`Cc1ccc(NS(=O)(=O)c2c(C)nc3sccn3c2=O)c(Br)c1` gave TAR Tat displ -1.1.
For O=C(c1ccccc1)c1ccc2nc(N3CCCCC3)c3nncn3c2c1 the results were CDC25B-CDK2 inh -3.5 and TAR Tat displ 0.9.
Cc1nc(-c2csc(S(=O)(=O)N3CCCCC3)c2)no1 was read as TAR Tat displ 0.36.
Screening Cc1nc([N+](=O)[O-])cn1CCc1noc(-c2ccsc2)n1 returned CDC25B-CDK2 inh 0.61.
Cc1c(Cl)cccc1-n1c(SCc2cc(=O)n3ccccc3n2)nc2[nH]ncc2c1=O was read as CDC25B-CDK2 inh -1.9.
For CC1=C(C(=O)OC(C)C)C(c2ccc(C)cc2)C(C(=O)OC(C)C)=C(C)N1 the results were CDC25B-CDK2 inh -0.02.
For COc1cc2c(cc1OC)C(C(=O)NC1CCCCC1)C(c1cccs1)N(C)C2=O (configuration not stated) the results were CDC25B-CDK2 inh -0.76 and TAR Tat displ 0.54.
`O=c1c(-c2nc(-c3ccc(C(F)(F)F)cc3)no2)cnc2n1CCS2` gave CDC25B-CDK2 inh -1.7.
Screening c1ccc(-c2nc3ccccc3s2)nc1 returned CDC25B-CDK2 inh -2.1 and TAR Tat displ 2.1.
`C[n+]1c2cc(N)ccc2cc2ccc(N)cc21` gave TAR Tat displ -3.8.
Screening Cn1cccc1Cc1nnc(SCC(=O)N2CCc3ccccc32)n1-c1ccc(F)cc1 returned CDC25B-CDK2 inh -0.08 and TAR Tat displ 0.51.
O=C(c1ccc2c(c1)sc1nc(-c3ccccc3)cn12)N1CCN(Cc2ccc3c(c2)OCO3)CC1 was read as TAR Tat displ 2.2.
For CNc1ccc(Cl)cc1C(=O)NC1CC(C)CC(C)(C)C1 (configuration not stated) the results were CDC25B-CDK2 inh -1.
CCN(CC)c1ccc(/C=C/c2ccc([N+](=O)[O-])cc2C#N)cc1 was read as CDC25B-CDK2 inh -2.3.
Screening CC(=O)N1c2ccc(S(=O)(=O)N3CCC(C(=O)NCCC(C)C)CC3)cc2CC1C (configuration not stated) returned TAR Tat displ 0.98.
Screening Cc1cc2c(cn1)C(=O)c1ccccc1-2 returned CDC25B-CDK2 inh -0.86.
For Cn1c(SCC(=O)N2CCN(c3ccccc3)CC2)ncc(C(=O)Nc2ccccc2)c1=O the results were TAR Tat displ 1.5.
`COc1ccc(N2C(=O)c3nccnc3C2=O)cc1Cl` gave CDC25B-CDK2 inh -0.7 and TAR Tat displ 0.88.
`O=C(CC12CC3CC(CC(C3)C1)C2)N1CCN(c2ccc(F)cc2)CC1` gave CDC25B-CDK2 inh -0.11.
For COc1ccc(Cl)cc1NC(=O)c1c(NCc2cccs2)sc2c1CCC2 the results were TAR Tat displ -0.28.
Screening Cc1nn(-c2nc(-c3ccc(F)cc3)cc(C(F)(F)F)n2)c(C)c1[N+](=O)[O-] returned CDC25B-CDK2 inh -1.7 and TAR Tat displ 1.8.
For CC1=C(C(=O)NCCCOC(C)C)C2(CCC(C)CC2)OC1=O (configuration not stated) the results were CDC25B-CDK2 inh -1.6 and TAR Tat displ 1.9.
C=CC[n+]1ccc(/C=C2\Sc3ccccc3N2C)cc1 was read as CDC25B-CDK2 inh -3.4 and TAR Tat displ 1.6.
`OC[C@H]1O[C@@H](Oc2cc(O)cc(/C=C/c3ccc(O)cc3)c2)[C@H](O)[C@@H](O)[C@@H]1O` gave TAR Tat displ 7.5.
`COc1cc(C2OCC(C)(C)n3c(-c4ccc(Cl)cc4)c4c(=O)n(C)c(=O)n(C)c4c32)ccc1O` (configuration not stated) gave CDC25B-CDK2 inh 1.7 and TAR Tat displ 1.4.
`O=C(CCc1nnc2ccc(N3CCCC3)nn12)NCCN1CCCC1` gave TAR Tat displ -0.15.
For CC(/C=C(\NC(=O)c1ccccc1)C(=O)N/N=C/c1cc([N+](=O)[O-])cc(Br)c1O)=C\c1ccccc1 the results were CDC25B-CDK2 inh -5.
`O=C(O)c1ccc(S(=O)(=O)c2ccc(Sc3ccc(C(=O)O)c(C(=O)O)c3)cc2)cc1` gave CDC25B-CDK2 inh -0.77.
Fc1ccc(Nc2nc3ccc(Cl)cc3n3cnnc23)c(F)c1 was read as CDC25B-CDK2 inh 0.05 and TAR Tat displ -0.77.
Screening CCCCN1CCn2c(nc3cc(NC(=O)OCC)ccc32)C1 returned CDC25B-CDK2 inh -1.3 and TAR Tat displ -8.4.
O=S(=O)(Nc1ccc(F)cc1)c1ccc(-c2cnc(C3CC3)o2)cc1 was read as TAR Tat displ 0.27.
For Cc1nc2nc(NC(=O)c3ccc(C(C)(C)C)cc3)[nH]n2c(=O)c1C the results were CDC25B-CDK2 inh -1.4 and TAR Tat displ 0.13.
For COCn1c(COc2cc(C)ccc2C(C)C)nc2ccccc21 the results were CDC25B-CDK2 inh -1.8 and TAR Tat displ 1.
Screening Cc1ccc(-c2nc3cnccn3c2Nc2ccccc2C)cc1 returned CDC25B-CDK2 inh -0.58 and TAR Tat displ -0.16.
CN1C(=O)c2ccccc2Sc2cc(NC(=O)C3CC(=O)N(c4ccccc4)C3)ccc21 (configuration not stated) was read as TAR Tat displ 2.1.
For O=C(c1cccnc1)N1CCN(c2ccc3ccccc3n2)CC1 the results were CDC25B-CDK2 inh 0.74 and TAR Tat displ -0.15.
CCCN(CCC)CCCNc1ncnc2onc(-c3ccc(Cl)cc3)c12 was read as CDC25B-CDK2 inh -1.1 and TAR Tat displ -0.13.
`CCCc1nn2c(=O)c(NC(=O)c3ccc(Cl)cc3)cnc2s1` gave CDC25B-CDK2 inh -1.2 and TAR Tat displ -0.13.
Screening COCCNC(=O)c1c(NC(=O)c2nc(SC)ncc2Cl)sc2c1CCCC2 returned CDC25B-CDK2 inh -1.2 and TAR Tat displ 3.2.
CC1CCN(c2nnc(-c3ccccc3)c3ccccc23)CC1 was read as CDC25B-CDK2 inh 0.15.
O=C(Nc1ccccc1Cl)c1cc2ccccc2c(=O)s1 was read as CDC25B-CDK2 inh -1.3 and TAR Tat displ 1.9.
Screening Cc1nn(-c2ccc(F)cc2)c(-n2cccc2)c1C(=O)Nc1ccc2c(c1)OCO2 returned TAR Tat displ 0.1.
O=C1CSc2ccc(S(=O)(=O)N3CCC(Cc4ccccc4)CC3)cc2N1 was read as TAR Tat displ -1.1.
For Cc1oc(-c2cccc(Br)c2)nc1Cn1nc(C)c2c(C)onc2c1=O the results were TAR Tat displ 0.86.
`COc1ccc(C2=NC(c3ccsc3)NC(c3cc(Cl)ccc3O)C2)cc1` (configuration not stated) gave CDC25B-CDK2 inh 1.1 and TAR Tat displ -1.
`CCOC(=O)c1sc(N2C(=O)C(=O)/C(=C(/O)c3ccc(F)cc3)C2c2ccc(F)cc2)nc1C` (configuration not stated) gave CDC25B-CDK2 inh 0.06 and TAR Tat displ 0.88.
C=CCOc1ccc(C2CC(=O)Nc3c(-c4ccccc4OC)csc32)cc1 (configuration not stated) was read as TAR Tat displ 0.62.
`CCOc1ccc(N2CC(O)=C(c3nc4ccc(C)cc4[nH]3)C2=N)cc1` gave CDC25B-CDK2 inh 0.11 and TAR Tat displ 1.2.
CCc1c(C)nc2ncnn2c1Nc1cc(Cl)ccc1OC was read as CDC25B-CDK2 inh -1.8 and TAR Tat displ 1.6.
Cc1ccc(C2Nc3ccccc3NC3=C2C(=O)CC(c2ccc4c(c2)OCO4)C3)s1 (configuration not stated) was read as CDC25B-CDK2 inh 0.14 and TAR Tat displ 1.5.
Screening CC1=C(c2ccc(F)cc2)S(=O)(=O)N=C1Nc1ccc2c(c1)OCCO2 returned TAR Tat displ 0.42.
CCOC(=O)CSCC(=O)c1ccc(OCc2ccc([N+](=O)[O-])cc2)cc1 was read as CDC25B-CDK2 inh -0.82.
For CCCSc1nc2sc3c(c2c2nnc(SCC(N)=O)n12)CC(C)(C)OC3 the results were CDC25B-CDK2 inh -0.57 and TAR Tat displ 0.52.
Cc1ccc2nc(SCc3nc(-c4cccs4)no3)[nH]c2c1 was read as CDC25B-CDK2 inh -1 and TAR Tat displ 0.07.

An excerpt from above in order of SMILES length, highest first:
C=CCOc1ccc(C2CC(=O)Nc3c(-c4ccccc4OC)csc32)cc1 (configuration not stated) was read as TAR Tat displ 0.62.
`Cn1nc(C(=O)Nc2ccccc2F)c2c1-c1ccccc1OC2` gave CDC25B-CDK2 inh -1.9 and TAR Tat displ 0.38.
For O=S(=O)(Nc1nnc(C2CC2)s1)c1cccc2nonc12 the results were CDC25B-CDK2 inh -2.6.
`c1ccc2c(CNCC3CCCO3)noc2c1` (configuration not stated) gave TAR Tat displ 2.1.
Screening c1ccc(-c2nc3ccccc3s2)nc1 returned CDC25B-CDK2 inh -2.1 and TAR Tat displ 2.1.

Following part
Screening CCCc1[nH]nc2c1C(c1ccccc1OCC)C(C#N)=C(N)O2 (configuration not stated) returned CDC25B-CDK2 inh -3.2 and TAR Tat displ 2.2.
`O=C(C1CC1)N1N=C(c2cccc(Br)c2)CC1(O)C(F)(F)F` (configuration not stated) gave CDC25B-CDK2 inh 0.35.
`CN1CCN(Cc2nc3c(c(=O)n(C)c(=O)n3C)n2CCCO)CC1` gave CDC25B-CDK2 inh 1 and TAR Tat displ 0.45.
For O=S(=O)(Nc1ccc(F)cc1)c1ccc2nc(-c3ccccc3)[nH]c2c1 the results were CDC25B-CDK2 inh -2.1.
Screening CCOC(=O)Nc1cccc(N2CCn3c(nc4cc(Cl)ccc43)C2)c1 returned CDC25B-CDK2 inh -1.2 and TAR Tat displ -5.4.
For CCOc1ccc(-n2c(-c3ccccc3)c[n+]3c2CCCCC3)cc1 the results were CDC25B-CDK2 inh -0.02 and TAR Tat displ 0.9.
Screening N/C(=N\O)c1cnccc1C(F)(F)F returned CDC25B-CDK2 inh -0.91.
For COc1ccc(S(=O)(=O)N2CCN(c3ccc4nnc(-c5ccccc5)n4n3)CC2)cc1 the results were CDC25B-CDK2 inh -0.34 and TAR Tat displ 0.43.
`COc1cc(O)ccc1C1CC(=O)Nc2c1c(=O)nc(SCc1ccccc1)n2C` (configuration not stated) gave CDC25B-CDK2 inh -0.45 and TAR Tat displ 2.
Cn1nnnc1SCCCNCc1cc(Cl)ccc1OCc1ccc(F)cc1 was read as CDC25B-CDK2 inh -1.4 and TAR Tat displ -0.69.
`COC(=O)c1cnn2c3c(cnc12)CCCCC3` gave CDC25B-CDK2 inh -1.7 and TAR Tat displ 0.14.
`O=[N+]([O-])c1ccc(S(=O)(=O)N2CCCC2)cc1` gave CDC25B-CDK2 inh 0.8.
For O=C(CSc1nnc(-c2ccccc2)o1)N1CCCC1 the results were CDC25B-CDK2 inh -1.2 and TAR Tat displ 1.1.

Assay outcomes deposited in PubChem BioAssay by Center for Chemical Genomics, University of Michigan.
